StopGo reporter: lowers the luciferase signal of an FMDV 2A StopGo reporter | AID 1159524 | actives 1.2% (n = 410,000) | Potency, µM (series often up to 57.9 µM), inactives show at the top dose signal change, negative = less light | human cells with a luciferase reporter of 2A StopGo recoding; control for the full effect not named in the record; active = well fitted falling curve with a large enough effect; inconclusive = small, poorly fitted or top-dose-only effect; inactive = no such curve, though single readings can be large or run the other way; tested in HEK293T cells; further: nearly all actives have a fitted effect of over 45% in size; luciferase light after 4 h
RE007 growth inh: less growth of the S. pombe RE007 Vpr strain | actives 0.21% (n = 360,000) | S. pombe RE007 Vpr strain, BacTiter-Glo ATP luminescence, 24 h; control for the full effect not named in the record | Potency, µM (top dose mostly 92.2 µM), for the others: at the highest dose activity change, negative = less growth | AID 651644; active = well fitted falling curve with a large enough effect; inconclusive = small, poorly fitted or top-dose-only effect; inactive = no such curve, though single readings can be large or run the other way;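 further: nearly all actives have a fitted effect of over 50% in size; the assay follows cell death caused by Vpr and the record does not say whether a fall means rescue or toxicity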
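Fission yeast strain RE007, carrying one chromosomally integrated HIV-1 vpr copy, was seeded at OD 0.01 in PMG+AL medium with 23 nL pinned compound. After 24 h at 30 °C and 99% humidity, viability was read by BacTiter-Glo luminescence.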
Starred values were filed as active, the others as inactive; ? = inconclusive; & = joins results of further samples; [ ] = another dose, or the depositor's remark. On the % scale 0 is the no-effect control and ±100 the full control effect; potency means the concentration at half of the fitted maximal effect. A portion of the library; the hit share may differ from the screen's.

SMILES	StopGo reporter	RE007 growth inh
COC(=O)C1=C(c2ccc(S(C)(=O)=O)cc2)C[C@@H]2CC[C@H]1N2C(=O)NCc1ccccc1	-11%	-14%
COC(=O)C1=C(C)N(CCCC(=O)O)C(=O)NC1c1ccc([N+](=O)[O-])cc1 (stereo not drawn)	-11%	0%
CC1(C(=O)Nc2ccc3c(c2)OCCO3)CN(S(C)(=O)=O)CC(=O)N1Cc1ccco1 (stereo not drawn)	0%	0%
CCc1nc2ccc(C(=O)NCc3ccccc3OC)cn2c1N(CC)Cc1cccc(Br)c1	0%	-16%
O=C(NCC1CC1)c1cc2c(c(-c3cccc(-c4ccccc4F)c3)n1)[C@@H](CCO)N(C(=O)CC1CC1)C2	-31%	-15%
CCN1CCN(c2ccc(N3CCN(S(=O)(=O)c4cccc([N+](=O)[O-])c4)CC3)nn2)CC1	-7%	-13%
C#CCOCCOCCOCCNc1nc(N2CCN(C(=O)[C@H](CCCCN)n3cc(CCC(=O)O)nn3)CC2)nc(N2CCN(C(=O)[C@H](Cc3ccc(O)cc3)n3cc(CCO)nn3)CC2)n1	0%	2%
O=C(CCCn1c(=S)[nH]c2cc3c(cc2c1=O)OCO3)NCCc1ccc(Cl)cc1	-21%	5%
CCCCNC(=O)c1onc(CSc2ccc(F)c(F)c2)c1C(=O)NCCCC	-21%	7%
CC1(C)CC(Cc2ccc(C(F)(F)F)cn2)N(C(=O)OC(C)(C)C)C1 (stereo not drawn)	-10%	17%
CCc1nc2c(OCCC3CCCCC3)cccn2c1N(C)C(=O)C(C)C	-17%	-26%
CN(CCc1ccccc1)C(C(=O)Nc1ccc2c(c1)OCCO2)C1CC1 (stereo not drawn)	-1%	-28%
CC(C)CC(N)c1csc(Nc2ccc(C(=O)N(C)Cc3ccccc3)cn2)n1 (stereo not drawn)	44%[activator]	7%
CC(C)C[C@@H](CN1CCCC1CN1C(=S)NC[C@@H]1Cc1ccc(O)cc1)N1C[C@H](Cc2ccc(O)cc2)N(CCc2ccccc2)C1=S (stereo partly drawn)	0%	1%
CC(=O)Nc1ccc(OCC(O)CNC(C)C)cc1 (stereo not drawn)	-17%	-12%[18.4 µM]
CC(C)C[C@@H]1O[C@H](CCc2ccccc2)CC2=C1C(=O)OC(C)(C)O2	-16%&-17%	14%&-13%
O=C(Nc1nc2ccc(F)cc2s1)c1ccc([N+](=O)[O-])o1	-5%	-19%
O=C(Nc1ccc(F)c(Cl)c1)c1csc([C@H]2C[C@H](O)[C@@H](CO)O2)n1	10%	5%
COc1ccc(CN(C)C(=O)[C@H]2O[C@@H](n3ccc(N)nc3=O)[C@H](O)[C@@H]2O)cc1OC	-11%	3%
O=C(CC[C@H]1O[C@@H](n2cnc3c(NC(=O)c4ccccc4)ncnc32)[C@H](O)[C@@H]1O)NCc1ccc2c(c1)OCO2	0%	8%
CC1NC(=O)c2cc3ccccc3cc2-n2c1nc1ccccc1c2=O (stereo not drawn)	-1%	17%
CN(C)S(=O)(=O)Nc1ccc(Cc2ccncc2)cc1	0%	-9%
CCc1cccc(NC(=O)COC(=O)C2COc3ccccc3O2)c1 (stereo not drawn)	-6%	-8%
COc1ccccc1-c1csc(C(NC(C)=O)c2ccc(F)c(F)c2)n1 (stereo not drawn)	-22%	-3%
CCN(CC(=O)NCc1cccs1)C(=O)c1cccc(S(=O)(=O)N(CC)c2ccccc2)c1	-25%	10%
Other entries follow.
SMILES	StopGo reporter	RE007 growth inh
CC[C@@H]1CC2=C(C(=O)OC(C)(C)O2)[C@H](c2ccc(F)cc2)O1	-24%	-9%
Cc1cccc(CN2CCN([C@@H]3CS(=O)(=O)N[C@H]3COCc3ccccc3)CC2)c1	-11%	-7%
CC(C)COC(=O)N1CCCCC1c1cc(C(=O)NCc2ccccc2)no1 (stereo not drawn)	-4%	4%
CN1OC[C@@H]2CN(S(=O)(=O)c3ccccc3)[C@H](c3ccccc3Br)C[C@@H]21	-9%	4%
COC(=O)[C@]12CCCCC=C1N(CCc1ccc(OC)c(OC)c1)C(=O)[C@H](CC(=O)N1CCN(C(=O)C3CC3)CC1)C2	-25%	-11%
CCC1Cc2[nH]c(=S)[nH]c(=O)c2C(c2ccc(F)cc2)O1 (stereo not drawn)	-9%	8%
CC(C)(C)c1ccc(OCC(O)CN2CCc3ccccc3C2)cc1 (stereo not drawn)	-15%	-22%
CCOC(=O)C=Cc1ccc(C(=O)OCC)[nH]1	14%	-6%
C=CCOC(=O)C1=C[C@@H](c2csc3ccccc23)[C@H](CCCO)[C@@H](OCC)O1	-14%	14%
COCCNC(=O)C1CCCN(C(=O)c2nc(C)oc2C)CC1 (stereo not drawn)	-25%	-2%[18.4 µM]
CC1(C(=O)NS(=O)(=O)c2cccc(Cl)c2)CCN1C(=O)CCc1cccs1 (stereo not drawn)	1%	10%
COc1cccc(-c2nc(-c3ccccc3)c3ccc(Cl)cc3n2)c1	-8%	13%
CC(C)C[C@@H](CN1CCC[C@@H]1CN1C(=S)NC[C@@H]1Cc1ccccc1)N1C[C@H](Cc2ccc(O)cc2)N(CC2CCCCC2)C1=S	0%	5%
CCOC(=O)C1=C(C)N(CCCC(=O)O)C(=O)NC1C(CC)CC (stereo not drawn)	-11%	2%
OC[C@@H]1CN(Cc2ccc3c(c2)OCO3)C[C@H](n2cnc3c(N4CCN(c5ccccc5)CC4)ncnc32)O1	-19%	9%
CCC[C@H]1CN(c2ccc(Br)cc2)C(=O)[C@@H]1CC(=O)NC	-5%	3%
COc1cc(NC(=O)N2CCc3nc(NCc4cccc(Oc5ccccc5)c4)ncc3C2)cc(OC)c1OC	?	22%
O=C1[C@H]2[C@@H](c3ccccc3)N[C@]3(CCCN(Cc4ccccc4)C3=O)[C@H]2C(=O)N1Cc1ccccc1	-7%	6%
O=C(O)c1cccc(-c2csc(C(O)c3cccc(Cl)c3)n2)c1 (stereo not drawn)	47%[activator]	14%
O=C(OCc1cn([C@H]2CN(C(=O)c3cccs3)[C@@H](c3ccccc3)C[C@@H]2O)nn1)c1ccccc1	1%	0%
CC(C)COC(=O)N(C)C[C@@H]1OCc2cnnn2CCCC(=O)N([C@H](C)CO)C[C@H]1C	-2%	12%
Cc1ccc(-c2csc(C(C)(O)c3cccc(F)c3)n2)cc1C (stereo not drawn)	-20%	?
O=S1(=O)CC(N2CCN(c3ccccn3)CC2)CN1Cc1ccc(F)cc1 (stereo not drawn)	-11%	-14%
CCOC(=O)Cc1ccc(Nc2nc3cc(-c4ccccc4C)sc3c(=O)n2C)cc1	0%	4%
CCOC(=O)C1(C)CCN1C(=O)CSc1ccccc1 (stereo not drawn)	-15%	3%
(continued)
SMILES	StopGo reporter	RE007 growth inh
CCC(=O)N1CCC1(C)C(=O)Nc1cc(OC)ccc1OC (stereo not drawn)	-16%	-20%
Cc1cn([C@H]2C[C@H](O)[C@@H](/C=C/C(=O)NCc3ccc(N(C)C)cc3)O2)c(=O)[nH]c1=O	-17%	7%
Cc1cnc(CNc2nc3cc(-c4ccccc4C)sc3c(=O)n2C)cn1	-14%	-11%[18.4 µM]
O=C(Nc1ccccc1)C1Cc2c(-c3ccc4c(c3)OCO4)ccnc2O1 (stereo not drawn)	-19%	-22%
CCCCc1c(-c2cccc(Br)c2)ncn1CCc1ccccc1OC	?	?
C/C=C(\C)C(=O)NCCN1C2=NC[C@@H](Cc3ccccc3)N2C[C@@H]1Cc1ccc(OC)cc1	-16%	-9%
N#CCSc1ccccc1NC(=O)COC(=O)C1CCN(C(=O)c2ccc(Cl)cc2)CC1	-13%	0%
C[C@@H]1CN([C@H](C)CO)C(=O)c2cc(Br)cnc2O[C@H]1CN(C)C(=O)Nc1ccccc1F	1%	-1%
CCC(c1nnnn1-c1ccc2c(c1)OCCO2)N1CCN(c2ccc(F)cc2)CC1 (stereo not drawn)	?	1%
CCNC(=O)C1(C)CCCCN1Cc1ccc(C#N)cc1 (stereo not drawn)	-11%	2%[18.4 µM]
O=[N+]([O-])c1ccccc1SNc1ccccc1	0%	-19%
CCc1c(-c2cccc(Br)c2)ncn1Cc1cccc(-c2ccccc2)c1	?	-2%
CCc1noc(C)c1C(=O)N1CCCC(Nc2cccc(F)c2)C1 (stereo not drawn)	-10%	1%
CCOc1ccccc1CNn1cnnc1SCC(=O)NC(C)(C)C	-12%	4%
Cc1cccc(CN2CCN([C@H]3CS(=O)(=O)N[C@@H]3COCc3ccccc3)CC2)c1	-22%	-18%
Fc1ccc(Nc2nc(NCc3cccs3)nc3ccsc23)cc1	-5%	-25%
N#Cc1cccnc1N1CCN(C(C(=O)NC2CCCC2)c2ccc(F)cc2)CC1 (stereo not drawn)	-16%	-5%
CCc1nc2ccc(C(=O)Nc3cccc(OC)c3)cn2c1N(C)Cc1ccc(OC)cc1	-22%	-10%
CCN(CC)c1ccc(S(=O)(=O)N2CCOCC2)cc1NC(=O)COC(=O)/C=C/c1ccccc1	-9%	6%
CCOC(=O)CN1C(=O)N2C[C@H]3CON(C)[C@H]3C[C@H]2c2ccccc21	3%	-12%
COc1ccccc1-c1noc2c1C(=O)N(C(=O)OC(C)(C)C)CC2	-24%	-5%
C[C@H](O)[C@@H]1C(=O)N2CCc3ccc(N4CCN(C)CC4)cc3[C@@H]2C[C@@H]1N(C)C(=O)Nc1cc(Cl)cc(Cl)c1	-4%	-14%
COc1ccc(NC(=O)CCNC(=O)c2ccccc2Cl)cc1S(=O)(=O)N1CCCCC1	-1%	-11%
C[C@@H]1CN([C@H](C)CO)C(=O)CCCn2cc(nn2)CO[C@H]1CN(C)S(=O)(=O)c1ccccc1F	-10%	7%
CCCCN1C(=O)C(=O)NC[C@@H]1CC1CCCCC1	-21%	5%
Remaining list, next part.
SMILES	StopGo reporter	RE007 growth inh
CC1=C(C(=O)N2CCCCCC2)CC(CC(=O)NC(c2ccccc2)c2ccccc2)C(=O)N1CCC1=CCCCC1 (stereo not drawn)	-8%	-6%
CCOC1=C2[C@H]([C@H]3C(=O)N(c4ccccc4)C(=O)[C@H]3C1)[C@@H](c1ccccc1)N(S(=O)(=O)c1ccc(C)cc1)[C@H]2c1ccccc1	-19%	4%
COC(=O)[C@H]1[C@H]2C[C@@H]3c4[nH]c5cc(OC)ccc5c4CCN3C[C@H]2C[C@@H](OC(=O)/C=C/c2cc(OC)c(OC)c(OC)c2)[C@@H]1OC	-5%	8%[18.4 µM]
O=C(c1cc(C2CCCCN2S(=O)(=O)c2ccccc2)on1)N1CCOCC1 (stereo not drawn)	-21%	10%
Cn1ccc2c(-c3cccc4ccccc34)cc3c(c21)C1CCC3C1 (stereo not drawn)	0%	3%
Cc1ccc(S(=O)(=O)N2[C@@H](CO)CO[C@H]2CC(=O)OCc2ccccc2)cc1	0%	0%
COc1ccccc1-c1cnc(C(O)c2ccc(F)c(F)c2)[nH]1 (stereo not drawn)	7%	-20%[18.4 µM]
O=C(Nc1ccn(CCCN(CCCn2ccc(NC(=O)OCc3ccccc3)nc2=O)CCc2cc3ccccc3[nH]2)c(=O)n1)OCc1ccccc1	-5%	-9%
O=C1NC[C@@H](Cc2cccc3ccccc23)N(CCc2cccc(F)c2)C1=O	-17%	0%
O=C(NCc1cccnc1)c1cc(C2CCCCN2C(=O)OCc2ccccc2)on1 (stereo not drawn)	-2%	12%
CC1CC(NC(=S)N(C)C)CC(C)(C)C1 (stereo not drawn)	-7%	-12%
O=C(CC[C@H]1O[C@@H](n2cnc3c(NC(=O)c4ccccc4)ncnc32)[C@H](O)[C@@H]1O)NCCc1cc2ccccc2[nH]1	5%	3%
C[C@@H]1CN([C@H](C)CO)C(=O)CCCn2nncc2CO[C@H]1CN(C)Cc1ccc2cccnc2c1	-2%	2%
CCN(CC)C(=O)C1=C(C)N(CCCOC)C(=O)C(CC(=O)NCCc2ccccn2)C1 (stereo not drawn)	-1%	17%
C[C@H]1CN([C@@H](C)CO)C(=O)c2cc(C#CC3CCCC3)cnc2O[C@H]1CN(C)C(=O)Cc1ccccn1	-6%	-1%
Cn1nc(C(=O)NNC(=O)Cc2ccc(S(=O)(=O)N3CCOCC3)s2)c2ccccc2c1=O	9%	-4%
COc1ccc(CC(=O)Nc2ccccc2C(F)(F)F)cc1S(=O)(=O)N1CCOCC1	-11%	4%

Ordered by length of the SMILES (highest first): 3 of the compounds above.
SMILES	StopGo reporter	RE007 growth inh
CC1=C(C(=O)N2CCCCCC2)CC(CC(=O)NC(c2ccccc2)c2ccccc2)C(=O)N1CCC1=CCCCC1 (stereo not drawn)	-8%	-6%
CCN(CC)C(=O)C1=C(C)N(CCCOC)C(=O)C(CC(=O)NCCc2ccccn2)C1 (stereo not drawn)	-1%	17%
CC1CC(NC(=S)N(C)C)CC(C)(C)C1 (stereo not drawn)	-7%	-12%

Part of the list above, reformatted:
canonical_smiles,StopGo reporter,RE007 growth inh
CC1CC(NC(=S)N(C)C)CC(C)(C)C1 (stereo not drawn),-7%,-12%
O=C1NC[C@@H](Cc2cccc3ccccc23)N(CCc2cccc(F)c2)C1=O,-17%,0%
C[C@@H]1CN([C@H](C)CO)C(=O)CCCn2nncc2CO[C@H]1CN(C)Cc1ccc2cccnc2c1,-2%,2%
COc1ccccc1-c1cnc(C(O)c2ccc(F)c(F)c2)[nH]1 (stereo not drawn),7%,-20%[18.4 µM]

Bioassay records from PubChem BioAssay.
